AmpC inh no det – AmpC beta-lactamase inhibition, detergent-free assay. Potency, µM (top dose mostly 28.7 µM), for the others: at the highest dose activity change, negative = inhibition. 71,000 compounds, 1.8% hits. P00811. AmpC nitrocefin hydrolysis, absorbance 480 nm, no detergent; potencies from a single point are estimates; active = falling curve, for most hits resting on a single point; inconclusive = weak or doubtful change; inactive = flat or rising curve; also: % of control where 0% means no effect; about half of the hits show no inhibition at the top dose; a quarter of the inactives give rising signals
Target sequence (P00811 whole entry, looked up): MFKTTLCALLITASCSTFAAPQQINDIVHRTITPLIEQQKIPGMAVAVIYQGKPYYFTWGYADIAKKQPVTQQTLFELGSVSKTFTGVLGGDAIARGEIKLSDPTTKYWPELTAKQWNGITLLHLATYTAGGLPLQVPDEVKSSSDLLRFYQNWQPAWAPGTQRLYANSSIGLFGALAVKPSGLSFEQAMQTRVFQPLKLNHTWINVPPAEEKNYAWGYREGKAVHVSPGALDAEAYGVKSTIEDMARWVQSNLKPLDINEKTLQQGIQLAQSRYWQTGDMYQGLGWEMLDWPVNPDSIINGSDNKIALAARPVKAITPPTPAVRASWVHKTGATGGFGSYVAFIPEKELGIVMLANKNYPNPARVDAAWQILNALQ
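Enzyme, pH 7.0 phosphate. Compound titrations were pre-incubated with AmpC for 15 min at room temperature before nitrocefin (stock 800 uM) addition; product formation was recorded at 480 nm every 20 s for 4 min.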
* = called active by the depositor; ? = inconclusive; & = joins results of further samples; [ ] = dose if it differs, or a comment. Potency is read from the fitted curve at half-maximal effect.

SMILES	AmpC inh no det
COc1ccccc1NC(=O)c1nnn(Cc2ccccc2)c1NC(C)=O	4.2%
Cc1ccc(SCCC(=O)N2CCOCC2)cc1	15.5%
N#CC1=C2Sc3ccccc3N2CCCC1=O	-2.5%
C[C@@H]1O[C@@H](n2cc(F)c(=O)[nH]c2=O)[C@H](O)[C@@H]1O	8.6%
O=C1CC(N2CCOCC2)C(=O)N1c1ccc2c(c1)OCO2 (stereo not drawn)	-3.0%
CCCC[C@@H]1C[C@H]1C(NC(=O)c1ccccc1)c1ccc(Cl)cc1 (stereo partly drawn)	-10.9%
CCn1c2ccccc2c2cc(NC(=O)COC(=O)Cc3cn4ccsc4n3)ccc21	39.9%
CC(=O)NCCNc1nc(-c2ccc3c(c2)OCO3)nc2ccccc12	4.3%
CC[N@+]1(C)CCC[C@@H](OC(=O)C(O)(c2ccccc2)c2ccccc2)C1	-6.3%[12.8 µM]
O=[N+]([O-])c1cc(Cl)cc2c1nc(NCCO)c1ccccc12	40.9%[5.75 µM]
CN(C)C(=O)CN(c1ccc(F)c(Cl)c1)S(C)(=O)=O	-4.8%
O=C(c1ccc(S(=O)(=O)N2CCCCC2)cc1)N1CCN(c2ccccc2)CC1	71.3%
CC(=O)N1CCN(CCN=CC2=C(O)CC(C)(C)CC2=O)CC1	1.4%
Cc1ccc(C)c(S(=O)(=O)NCc2cccnc2)c1	6.9%
COc1cccc(CNC(=O)CCS(=O)(=O)c2cccc3nonc23)c1	9.1%
CN1C(=O)N(C)C(=O)C2(Cc3c(nc4ccccn4c3=O)N3CCC(Cc4ccccc4)CC32)C1=O (stereo not drawn)	123.7%
CCCCN(CC)CCCNC(=O)CC1Oc2ccccc2NC1=O (stereo not drawn)	-4.6%
COc1cccc(NC(=O)c2oc3ccccc3c2NC(=O)C(C)(C)C)c1	11.4%
CCN(CC)CCCN1C(=O)C(=O)/C(=C(/O)c2ccc3c(c2)OCCO3)C1c1ccc(C)o1 (stereo not drawn)	11.6%
O=C(CSc1nnc(-c2ccncc2)n1C1CCCCC1)Nc1ccccc1	75.6%
CC(=O)c1cc(F)c(N2CCN(C(=O)c3ccco3)CC2)cc1C	18.3%
Cc1ccc(NC(=O)C2CCN(S(=O)(=O)c3cccc4nonc34)CC2)nc1	13.3%
CCOc1ccc2[nH]c(=O)c(CN(Cc3cccnc3)C(=O)Nc3ccccc3OC)cc2c1	102.0%
CCN(CC(=O)NCc1cccs1)c1nnnn1-c1ccccc1	-0.1%
CCOC(=O)C(NCc1ccccc1OC)(NC(C)=O)C(F)(F)F (stereo not drawn)	7.8%

Next section:
SMILES	AmpC inh no det
Cc1cc(C)n2ncc(C(=O)Nc3ccc4c(c3)OCO4)c2n1	22.8%
Cn1c(C(=O)NCCCN2CCOCC2)cc2c(=O)n(C)c3ccccc3c21	?
CC(C)CCn1cnc2c(cnn2-c2ccc(F)cc2)c1=O	1.3%
O=C1C2ON(c3ccccc3)C(c3ccncc3)C2C(=O)N1c1ccc(N2CCOCC2)cc1 (stereo not drawn)	100.9%
O=C(c1ccco1)[C@@H]1[C@@H]2C(=O)N(c3ccccc3)C(=O)[C@@H]2C2c3ccccc3C=CN21 (stereo partly drawn)	4.7%
COc1ccc(N(CC(=O)Nc2cccc(C)c2)S(=O)(=O)c2c(C)n[nH]c2C)cc1	41.0%
COC(=O)c1ccc(CSc2nnc(CNC(=O)c3ccccc3F)o2)o1	6.5%
O=C(CN(C(=O)CSc1nnc(COc2ccccc2)o1)c1ccc(F)cc1)NC1CCCC1	54.5%
Cc1ccc2oc(=O)cc(CN3CCOCC3)c2c1	6.6%
O=C1c2ccccc2C(Nc2ccc(F)c(Cl)c2)N1Cc1ccco1 (stereo not drawn)	7.1%
COC(=O)CCC(=O)c1oc2ccccc2c1N	-16.6%
Cc1nc2c(OCc3ccccc3)cccn2c1CC#N	17.9%&3.8%
Cc1ccccc1-c1nc(CS(=O)CC(=O)NCCN2CCOCC2)c(C)o1 (stereo not drawn)	3.98µM*[single pt active]
CCOC(=O)CC(=O)CSc1ncnc2c1cnn2-c1ccccc1	28.6%
CC(=O)N1CCN(c2ccc(Oc3ncnc4sccc34)cc2)CC1	55.2%
CC1=NCCN1S(=O)(=O)c1cc(Cl)ccc1Cl	11.7%
COc1ccccc1N(CC(=O)N1CCCCC1)S(=O)(=O)c1ccccc1	30.5%
CCOc1ccc(C2c3c(oc4ccccc4c3=O)C(=O)N2c2ccc(C)cn2)cc1OC (stereo not drawn)	16.1%
Cc1cccn2c(=O)c(C=NCc3ccccc3)c(NCCO)nc12	16.6%
CCc1cc(C(=O)OC)c(N2C(=O)C3C4C=CC(C4)C3C2=O)s1 (stereo not drawn)	29.0%
COC(=O)c1sccc1NC(=O)Cn1nnc(-c2ccc(C)cc2)n1	-10.1%
O=C(O)C1CC=CCC1C(=O)Nc1cc(Cl)ccc1Cl (stereo not drawn)	-1.1%
CCCC1=C(C(=O)OCC)C(c2ccc(N(C)C)cc2)n2ncnc2N1 (stereo not drawn)	12.3%
Cc1cc(Cl)ccc1NC(=O)CSc1nnc(Cc2cccs2)n1Cc1ccco1	17.4%
c1cc(CCN2CCCCC2)ccn1	-8.4%[5.75 µM]

The list continues:
SMILES	AmpC inh no det
CCOC(=O)c1ccccc1NC(=O)CN1C(=O)c2ccccc2S1(=O)=O	4.6%
Fc1ccccc1	-0.6%
Cn1c(=O)c2[nH]c(/N=N\N3CCN(CCO)CC3)nc2n(C)c1=O	1.3%[5.75 µM]
Cc1cccn2c(=O)c3cc(C#N)c(=O)n(-c4c(C)n(C)n(-c5ccccc5)c4=O)c3nc12	-2.4%
O=C(CSc1nc2cc(S(=O)(=O)N3CCOCC3)ccc2o1)NC1CCCc2ccccc21 (stereo not drawn)	13.4%
Cc1cc(C(=O)OCC(=O)Nc2ncc(C(F)(F)F)cc2Cl)c(C)o1	7.3%
Nc1ncnc2c1CCC2	14.2%
O=C1CCc2cc(S(=O)(=O)N3CCC(C(=O)NC4CCCC4)CC3)ccc2N1	-2.2%
CC(C)OC(=O)CSc1nnc(-c2cnccn2)n1Cc1ccco1	17.5%
CCCc1[nH]nc2c1C(c1cc(OC)cc(OC)c1)C(C#N)=C(N)O2 (stereo not drawn)	-16.4%
CCOc1cc(C(=O)N(C)Cc2cc3ccccc3[nH]c2=O)cc(OCC)c1OCC	22.3%
Cc1cc(C)nc(Nc2ccccc2Br)n1	8.5%
COC(=O)Cn1ccc(N(C)C)c(C#N)c1=O	-2.4%
CCC(C)(C)n1nnnc1C(c1cccs1)N1CC=C(c2ccc(F)cc2)CC1 (stereo not drawn)	12.3%
COC(=O)c1[nH]c2cccc(OC)c2c1NC(=O)CCN1CCN(c2ccccc2OC)CC1	79.8%
COc1ccc(CCN2C(=O)c3ccccc3C2(O)c2ncc[nH]2)cc1OC (stereo not drawn)	-5.0%
COc1cccc(Cn2c(=O)c(-c3ccc(Cl)cc3)nc3cnc(N4CCNCC4)nc32)c1	72.0%
COc1ccc(NS(=O)(=O)c2ccc(C)c(C(=O)O)c2)cc1	3.7%
CCOc1ccc(C2NC(=O)c3n[nH]c(C)c32)cc1 (stereo not drawn)	-10.8%
CCS(=O)(=O)Nc1ccc(-c2nnc(SCC(=O)c3cccc(OC)c3)o2)cc1	26.2%
O=C(OCCOCCN=C1NS(=O)(=O)c2ccccc21)c1ccncc1	-8.4%
O=C(NCc1ccccn1)Nc1ccc(Cl)c(Cl)c1	-11.3%
C=CCc1cc(C)cc(C)c1OCCn1cncn1	33.0%
COc1ccccc1C(=O)N(Cc1cccs1)C1CCS(=O)(=O)C1 (stereo not drawn)	-3.5%
O=c1c2[nH]c3ccccc3c2ncn1CCN1CCCCC1	-10.5%

Going on with the list.
SMILES	AmpC inh no det
CCc1nnc(NC(=O)CCC(=O)N2CCCC2)s1	2.0%
Cc1ccc2cc(C#N)c(SCC(=O)NCc3ccco3)nc2c1	-24.4%
CCOC(=O)c1ccccc1NC(=O)Cn1cnc2c(nnn2-c2ccc(C)cc2)c1=O	-1.5%
COc1ccc(C2=NCC(CSc3nccc(=O)[nH]3)S2)cc1 (stereo not drawn)	6.7%
CC1CCCN(CC(=O)Nc2ccc(S(=O)(=O)NC3CCCCC3)cc2)C1 (stereo not drawn)	5.7%
Cc1cc(NCCN2CCOCC2)n2nc(C)c(-c3ccccc3)c2n1	99.8%
CCNC(C)(C)[C@@H](SS)c1ccc(Br)cc1	-4.9%[5.75 µM]
O=C(c1ccco1)N1CCN(S(=O)(=O)c2ccc(S(=O)(=O)NC3CCCC3)cc2)CC1	24.6%
Cn1c(/C(C#N)=C(\O)COc2ccc3ccccc3c2)nc2ccccc21	-22.6%
CC(C)C[C@H]1C(=O)N2CCC[C@@H]2[C@]2(O)O[C@](NC(=O)[C@@H]3C=C4c5cccc6[nH]c(Br)c(c56)C[C@H]4N(C)C3)(C(C)C)C(=O)N12	117.4%
COCCNC(=O)C(c1ccccc1)N(C(=O)Cn1nnc2ccccc21)c1cccnc1 (stereo not drawn)	-1.6%
COc1ccc(C2(CCN)CC(C)N(C)CC2C)cc1 (stereo not drawn)	-19.7%
CCN[C@]1(c2cccs2)CCCCC1=O	3.1%[12.8 µM]
Cc1oc2ncnc(N)c2c1C	7.0%
Fc1ccc2c(Cl)c(-c3nnc(-c4cccs4)o3)sc2c1	-7.9%
O=c1c(-c2ccccc2)nc2cnc(Nc3ccccc3)nc2n1Cc1cccs1	-1.1%
CCOC(=O)N1CCC(NC(=O)c2cc(C(=O)NC3CCCC3)ccc2CO)CC1	15.2%
Cc1ccc(NC(=O)CCSc2nnc(-c3ccco3)o2)cc1	15.2%
Cc1ccc(C)c(NC(=O)CN(C)S(=O)(=O)c2ccccc2)c1	3.8%
N#CC(C(=O)NC1CCCCC1)c1nc2ccccc2nc1N1CCOCC1 (stereo not drawn)	10.2%
COc1cc(-c2nnc(COc3ccc4cc(Br)ccc4c3)o2)cc(OC)c1OC	0.8%
Nc1ccnn1Cc1cccnc1	4.8%
CCOc1ccc(C(=O)CN2CCN(S(=O)(=O)c3ccc(Cl)cc3)CC2)cc1	48.8%
Cc1onc(-c2c(Cl)cccc2Cl)c1C(=O)NCc1ccco1	3.8%
CN1C(=O)c2cccc3c(S(=O)(=O)NCc4ccco4)ccc1c23	-5.1%

A different layout for part of the listing above.
Structure: CCOC(=O)N1CCC(NC(=O)c2cc(C(=O)NC3CCCC3)ccc2CO)CC1
  AmpC inh no det: 15.2%
Structure: Cc1ccc(NC(=O)CCSc2nnc(-c3ccco3)o2)cc1
  AmpC inh no det: 15.2%
Structure: Cc1ccc(C)c(NC(=O)CN(C)S(=O)(=O)c2ccccc2)c1
  AmpC inh no det: 3.8%
Structure: N#CC(C(=O)NC1CCCCC1)c1nc2ccccc2nc1N1CCOCC1 (stereo not drawn)
  AmpC inh no det: 10.2%

(list continues)
SMILES	AmpC inh no det
Cc1cc(C(=O)NCCCN2CCN(C3CCCCC3)CC2)n(-c2ccccc2)n1	8.2%
CCOc1ccc(N2CC(=O)Nc3ccccc3NCC2=O)cc1	-6.1%
O=C(COc1ccccc1Cl)OCC(=O)N1CCN(S(=O)(=O)c2ccccc2)CC1	48.8%
CCc1ccc(-c2nc(CSCC(=O)N3CCN(c4ccccn4)CC3)c(C)o2)cc1	112.5%
Cn1cc(C(=O)NCCc2ccccc2)c(=O)c2cc(S(=O)(=O)N3CCOCC3)ccc21	86.4%
N#CC1=C(N)Oc2n[nH]c(-c3cccs3)c2C1c1ccoc1 (stereo not drawn)	?
CN(C)S(=O)(=O)c1ccc(C(=O)OCCCN=C2NS(=O)(=O)c3ccccc32)cc1	-9.5%
CN(C)Cc1ccccc1-c1cc(NC2CC2)ncn1	-13.6%
COc1cc(C(=O)OC(C)C(=O)N2CCc3ccccc3C2)ccc1OCC(=O)N1CCOCC1 (stereo not drawn)	108.7%
CC(=O)Nc1cccc(C(=O)Nc2ccccc2C(=O)O)c1	-18.8%
NC(=O)C1CCCN(S(=O)(=O)c2ccc(Br)cc2)C1 (stereo not drawn)	-6.5%
CC12CC(NC(=O)N1c1ccc(C(=O)N3CCN(c4ccccn4)CC3)cc1)c1ccccc1O2 (stereo not drawn)	96.2%
Cc1nc2ccccc2c(=O)n1/N=C/c1cccnc1	-3.1%
COC(=O)c1ccccc1NC(=O)C(C)Oc1ccccc1 (stereo not drawn)	-3.7%
COc1cc(CN2CCCCC2)cc2cc(C(=O)O)c(=O)oc12	2.3%[5.75 µM]
CCCc1n[nH]c2c1/C(=N/O)CC(c1ccccc1)C2 (stereo not drawn)	-15.1%
Cc1csc(NC(=O)c2ccoc2C)n1	-5.3%
CC#C[C@]1(O)CC[C@H]2[C@@H]3CCC4=CC(=O)CCC4=C3[C@H](c3ccc(N(C)C)cc3)C[C@@]21C	111.3%
CCOc1ccc(N(CC(=O)NCc2ccccc2OC)S(C)(=O)=O)cc1	45.3%
CN(C1CCS(=O)(=O)C1)S(=O)(=O)c1ccc(C2CCCCC2)cc1 (stereo not drawn)	37.1%
CC(C)COc1ccc(C2NC(=O)NC2=O)cc1 (stereo not drawn)	1.9%
O=C(Nn1cnnc1)C(Sc1ccccc1)c1ccccc1 (stereo not drawn)	-8.7%
O=C(CN1C(=O)C2CC=CCC2C1=O)Nc1nccs1 (stereo not drawn)	-2.2%
O=C(C1CCC(CNc2c(N3CCCCC3)c(=O)c2=O)CC1)N1CCc2ccccc2C1 (stereo not drawn)	37.3%
CS(=O)(=O)N(CC(=O)NCCSc1ccccc1)c1ccc2c(c1)OCO2	16.5%

Structural class, the entries above containing a COOH group
SMILES	AmpC inh no det
O=C(O)C1CC=CCC1C(=O)Nc1cc(Cl)ccc1Cl (stereo not drawn)	-1.1%
COc1ccc(NS(=O)(=O)c2ccc(C)c(C(=O)O)c2)cc1	3.7%
CC(=O)Nc1cccc(C(=O)Nc2ccccc2C(=O)O)c1	-18.8%
COc1cc(CN2CCCCC2)cc2cc(C(=O)O)c(=O)oc12	2.3%[5.75 µM]

Only part of the results is shown (hit frequency here may not be typical).
